Assay outcomes from PubChem.
Autofluor counter: compound fluorescence in toxin protease inhibitor counterscreen; compound autofluorescence counterscreen, microsphere flow cytometry; active compounds read high; fluorescence intensity (concentration not given with the values); hit rate 3.1% among 360,000; AID 624483;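 active means at least 3 SD above the mean of all compounds, about 16000 in these data; inconclusive means too few beads counted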;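 further: 100 nL of 1 mM stock went into each well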
Mtb hypoxia rep: inhibitors of hypoxia-regulated fluorescent reporter in Mycobacterium tuberculosis. fluorescence inhibition, % (no concentration beside the values). AID 1159583. M. tuberculosis hypoxia-regulated fluorescent reporter, fluorescence. hit rate 0.1% among 300,000;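 active means 35 to 45% if threefold the growth effect, above 45% if 1.5-fold the growth effect; inactive means the rest, general growth blockers included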;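 further: wells of about 50 µL received 100 nL stock; 0% = vehicle wells and 100% = reference inhibitor wells; whole bacteria with a GFP reporter of the hypoxia response; strong numbers were not always called active; many hits fall short of the cut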
BJeLR viability: kills HRASV12-expressing BJeLR cells | BJeLR (HRASV12) viability, CellTiter-Glo ATP luminescence, 48 h; reference of the scale not given here | inhibition, % (test concentration not listed) | hit rate 0.17% among 300,000 | AID 1554;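 active means replicate mean above 50%; inconclusive means above 50% but judged a plate artefact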;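 further: 50 nL library stock added to about 25 µL; numbers are from one replicate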
RN4220 kill: S. aureus RN4220 growth inhibition. OD600, 16 h. inhibition, % (no concentration beside the values). hit rate 0.33% among 330,000;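 active means z-score of -3 or lower and OD600 up to 0.18 on both plates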;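 further: plate controls were untreated cells for no effect and reference antibiotic for full effect; stock transfer was 100 nL into about 80 µL; one replicate is shown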
ugtP null kill: growth inhibition of S. aureus ugtP deletion strain. hit rate 0.54% among 330,000. S. aureus RN4220 ugtP deletion, OD600 growth, 16 h; some inactives read as strong as hits. AID 1259309. growth inhibition, % (no concentration beside the values);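 active means z-score under -3 and OD600 up to 0.15 on both plates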;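 further: plate controls were untreated wells for no effect and antibiotic for full effect; wells of about 80 µL received 100 nL stock; the first replicate is given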
PrP 5UTR inh: inhibition of PrP 5' UTR reporter expression. hit rate 0.35% among 340,000. cell-based PrP 5' UTR mRNA reporter, plate reader. inhibition, % (test concentration not listed);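 active means every replicate at 50% or more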;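 further: 0 = median of the neutral control wells; tested in H4 reporter cells; numbers are from one replicate; inactives centre near -14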
Mtb hypoxia rep growth: further read-out of Mtb hypoxia rep, marked with its call; growth inhibition, %; measured here: M. tuberculosis growth (absorbance);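 0% = vehicle and 100% = reference antibiotic; read after six days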
An asterisk follows results filed as active; ? = inconclusive; . = not tested or not shown.

Below each compound – Autofluor counter, Mtb hypoxia rep, Mtb hypoxia rep growth, BJeLR viability, RN4220 kill, ugtP null kill, PrP 5UTR inh
COc1ccc(/C=C2\CCC(C3CCCC3)C2=O)c(OC)c1OC (configuration not stated)
→ 3264, -6, -2, 5, -8.9, -6, -8
COc1ccc(C(=O)Nc2cccc(-c3cc4ccccc4oc3=O)c2)cc1[N+](=O)[O-]
→ 6966, -2, -11, ., 2.3, -9, -25
O=C(O)CN1C(c2ccccc2O)Nc2ccc(Br)cc2C1c1ccccc1 (configuration not stated)
→ 4629, ., ., 5, ., ., 1
CCOc1ccc(CSC(=N)N)cc1Cl
→ ?, -6, 1, -8, 2.3, 6, -7
COc1ccccc1C(=O)N/C(=C\c1ccc(Br)cc1)C(=O)N1CCCC1
→ 5776, 4, 2, -4, 3.8, 2, .
CO/N=C\C(=N\Nc1ccc(OC)cc1)C(=O)c1ccccc1
→ 2824, ., ., 4, ., ., -26
N/C(=N\c1nc2ccccc2o1)NC(=O)c1ccccc1NC(=O)c1ccccc1
→ 4500, 0, 4, ., 1.3, 15, -25
CC[C@]12c3[nH]c4cc(-c5ccco5)ccc4c3CCN1C(=O)[C@@H](CC(=O)NCC13CC4CC(CC(C4)C1)C3)C[C@@H]2C(=O)N1CCN(C(=O)c2ccco2)CC1
→ 3072, -8, 13, ., -1.7, -19, 10
CCOCCCNC(=O)C1CCCN(S(=O)(=O)CC)C1 (configuration not stated)
→ 3525, 11, 3, -2, -6.0, 1, -19
CSc1nnc(-c2sccc2OCc2ccccc2)n1C
→ 16539*, 4, 0, -4, 1.5, 8, -5
Cc1cc(O)c(C(C)C)cc1N=Cc1ccc(N(C)C)cc1
→ 3616, -8, 4, ., 1.3, -17, -8
COc1ccc(O)c(C(=O)c2cnn(-c3ccccc3)c2)c1
→ 6157, 3, 0, 0, -0.6, -1, -11
CC1CCCCC1NC1=NCCS1 (configuration not stated)
→ 4017, 1, 1, -1, 0.9, 9, -6
Cc1c(C)c2c(C)[nH]nc2oc1=O
→ 3006, 3, 11, 2, 1.7, 1, -58
CC(=O)c1ccc(NC(=O)CN2CCCC2)cc1
→ 3300, -8, -7, 6, -6.5, -3, -36
O=C(NC(=O)N1CCN(c2ccccc2)CC1)c1ccc(Cl)cc1
→ 5462, -6, -8, -5, 11, -10, -46
CCn1c(CNC(=O)c2cc(OC)c(OC)c(OC)c2)cc2ccccc21
→ 4112, 3, -4, -1, -0.3, 6, -5
O=C(NCC1CCCO1)c1cc(S(=O)(=O)N2CCCCC2)ccc1Cl (configuration not stated)
→ 2795, -4, -12, ., 1.6, 1, 11
Cc1cc(C)c(S(=O)(=O)c2ccccc2C)c(OCC(C)(C)C)n1
→ 2194, ., ., 2, 13, 56, -12
CN(C)c1ccc(-c2nc3n(n2)C(c2cccnc2)C2=C(CC(C)(C)CC2=O)N3)cc1 (configuration not stated)
→ 5586, -4, 11, 0, 2.5, 2, -22
CSc1nc(-c2ccccc2)nn1C(=O)c1ccccc1
→ 3765, ., ., 28, 2.0, 3, -13
O=C(CC1Oc2ccccc2NC1=O)NC1CCCC1 (configuration not stated)
→ 5885, ., ., -5, -2.0, -1, -16
C=CCNC(=S)N/N=C/c1ccc(OCc2ccccc2)cc1
→ 4014, ., ., -8, ., ., -21
O=C(CSc1ccccn1)N1CCN(c2ccc(Cl)cc2)CC1
→ 21847*, 13, 17, 4, 2.0, -2, 3
Cc1nonc1C(=O)N/N=C/c1ccccc1
→ 3292, ., ., 0, ., ., -6
O=C1CN=C(c2ccc[nH]2)c2cc(Cl)ccc2N1
→ 3501, 14, 10, 7, 6.4, 0, -43
C/C=C\C=C\C(=O)N1CC2(CC(c3cccc(NC(=O)/C(C)=C\C)c3)=NO2)C[C@H]1C(N)=O (some centres not stated)
→ 3023, ., ., -14, ., ., -4
Cc1ccc(S(=O)(=O)N(C)c2c(C)ccc(S(=O)(=O)N3CCN(C)CC3)c2C)cc1
→ 2377, 10, 6, -2, 6.7, 5, -3
O=c1[nH]cc(CN2CCOCC2)c(=O)[nH]1
→ 3805, 26, 14, ., -0.3, 2, -30
Cc1cccc(-c2nc3ccccc3c(=O)n2NC(=O)c2ccc([N+](=O)[O-])c(C)c2)c1
→ 2440, -14, 1, 4, 25, -8, -5
Nc1nnnn1/N=C/c1ccc(F)cc1
→ 3634, ., ., -3, ., ., -6
Cc1ccc(S(=O)(=O)NCC(=O)OCC(=O)Nc2cccc(S(=O)(=O)NC3=NCCCCC3)c2)cc1
→ 4606, 4, 9, 0, 6.3, 4, -11
COC(=O)c1c(NC(=O)CC2NCCNC2=O)sc2c1CCCC2 (configuration not stated)
→ 10318, 6, 8, -3, 0.5, -4, -19
COC(=O)c1ccc(NC(=O)CNC(=O)c2sc3ccccc3c2Cl)cc1
→ ?, 2, 1, ., 1.5, -6, .
Cc1onc(-c2c(F)cccc2Cl)c1C(=O)OCC(=O)NCc1ccco1
→ 3525, 3, 6, -2, -0.5, -3, -45
Cc1ccc(C(C)C)c(OCC#CCN2CCCC2)c1
→ 4063, 22, 6, 4, 8.1, 6, -20
CC(NC(=O)C1CCCN1S(=O)(=O)c1cccc2nsnc12)c1ccccc1 (configuration not stated)
→ 5521, 9, -3, 1, 2.3, 6, -9
O=C(O/N=C(\c1ccccc1)c1ccncc1)c1ccccc1Cl
→ 4458, ., ., 3, ., ., -33
COc1ccc(Cl)cc1NCC(=O)Nc1ccc(OC)c(S(=O)(=O)N2CCCCC2)c1
→ 8636, -1, -1, ., 1.9, -9, -14
CC(=O)N1CCN(C(=O)CCNS(=O)(=O)c2ccccc2)CC1
→ ?, 4, 3, ., 2.6, 5, .

Shown field by field: four of the compounds above
Cc1onc(-c2c(F)cccc2Cl)c1C(=O)OCC(=O)NCc1ccco1
  Autofluor counter: 3525 | Mtb hypoxia rep: 3 | Mtb hypoxia rep growth: 6 | BJeLR viability: -2 | RN4220 kill: -0.5 | ugtP null kill: -3 | PrP 5UTR inh: -45
Cc1ccc(C(C)C)c(OCC#CCN2CCCC2)c1
  Autofluor counter: 4063 | Mtb hypoxia rep: 22 | Mtb hypoxia rep growth: 6 | BJeLR viability: 4 | RN4220 kill: 8.1 | ugtP null kill: 6 | PrP 5UTR inh: -20
CC(NC(=O)C1CCCN1S(=O)(=O)c1cccc2nsnc12)c1ccccc1 (configuration not stated)
  Autofluor counter: 5521 | Mtb hypoxia rep: 9 | Mtb hypoxia rep growth: -3 | BJeLR viability: 1 | RN4220 kill: 2.3 | ugtP null kill: 6 | PrP 5UTR inh: -9
O=C(O/N=C(\c1ccccc1)c1ccncc1)c1ccccc1Cl
  Autofluor counter: 4458 | Mtb hypoxia rep: . | Mtb hypoxia rep growth: . | BJeLR viability: 3 | RN4220 kill: . | ugtP null kill: . | PrP 5UTR inh: -33

(more compounds)
Below each compound – Autofluor counter, Mtb hypoxia rep, Mtb hypoxia rep growth, BJeLR viability, RN4220 kill, ugtP null kill, PrP 5UTR inh
CCCCn1c(O)c(C(C)=NCCCn2ccnc2)c(=O)[nH]c1=O
→ 8421, 16, 14, -3, 6.0, 3, -36
Cc1nn(Cc2ccc(Cl)cc2Cl)c(Cl)c1/C=C/C(=O)OCC(=O)NCC(F)(F)F
→ 2643, ., ., 14, ., ., -13
Cc1noc(C)c1CSCC(=O)Nc1nc2ccc(Oc3ccccc3)cc2s1
→ 2371, ., ., -5, -8.1, 9, -17
O=C(COc1ccc(Cl)cc1Cl)N1CCN(C/C=C/c2ccccc2)CC1
→ 9172, 8, 1, 4, 6.2, -16, -27
CCN(CC)S(=O)(=O)c1ccc(OC(C)C)c(N)c1
→ 4247, 8, 1, -8, 8.5, 5, -23
Cc1n[nH]c(C)c1S(=O)(=O)N1CCCC(C(=O)NCc2cccs2)C1 (configuration not stated)
→ 3789, ., ., 1, 2.4, -1, -17
COc1cccc(C(=O)Nc2ccc(NC(=O)c3ccco3)nc2)c1
→ 4773, ., ., 4, -3.9, 4, -66
O=C(COC(=O)CCc1ccc(S(=O)(=O)N2CCOCC2)cc1)NC1CCCC1
→ 2126, 2, 13, 7, 3.5, -1, -9
CCN(CCCNC(=O)C1CCN(S(=O)(=O)CC)CC1)c1ccccc1
→ 9916, 3, 6, -4, 3.1, -2, -20
Cc1ccc2c(c1)C(c1ccccc1)N(C(=O)CC(C)C)CC(=O)N2 (configuration not stated)
→ 3805, -6, 3, 0, 1.3, 11, -15
CCC1CN(C(=O)NCc2ccc(C)cc2)c2cc(C)ccc2O1 (configuration not stated)
→ 3355, 2, -3, -3, 0.6, 17, -9
Cc1cc(C)cc(NC(=O)CN(c2ccc(F)cc2)S(C)(=O)=O)c1
→ 3415, 3, -1, 5, 5.2, 4, -13
Cc1cc(/C=C2/C(=O)NC(=O)N(c3ccc(Br)cc3)C2=O)c(C)n1C
→ ., -7, 6, -7, 3.1, 5, -37
Cc1c(NC(=O)Cn2cc([N+](=O)[O-])cn2)c(=O)n(-c2ccccc2)n1C
→ 3993, 17, -2, 27, 3.3, 3, -30
Cc1ccc(C[n+]2c(-c3ccc(C)cc3)cc(-c3ccc(C)cc3)cc2-c2ccc(C)cc2)cc1
→ 4297, ., ., 60*, 101*, 101*, 51
CCOC(=O)c1[nH]c2c(c1C)C(=O)CC(c1ccc(N(C)C)cc1)C2 (configuration not stated)
→ 6317, ., ., -1, 0.3, 8, -43
COc1ccc(CC2(C)OC(c3ccc(C)cc3)=NN2C(C)=O)cc1 (configuration not stated)
→ 2641, -1, 4, 1, 7.4, 27, -140
CSc1ccccc1OCc1cc(C(=O)N[C@H]2CCCCNC2=O)no1
→ 5466, 12, 5, 3, 4.0, 2, -96
CCOc1ccc(Nc2nc3cc(S(=O)(=O)N(CC)CC)ccc3o2)cc1
→ 3107, ., ., -12, ., ., -10
CC(C)C(O)(c1ccccc1)C(CN1CCOCC1)c1ccccc1 (configuration not stated)
→ 2872, 2, -6, 5, 24, 12, -23

Next section.
structure | Autofluor counter | Mtb hypoxia rep | Mtb hypoxia rep growth | BJeLR viability | RN4220 kill | ugtP null kill | PrP 5UTR inh
CCc1c(C)nc2ncnn2c1N1CCCC(C(=O)NCCc2ccc(OC)cc2)C1 (configuration not stated) | 10054 | 6 | 4 | -11 | 5.4 | 11 | -23
O=C(CSc1nccc(=O)[nH]1)c1cc2ccccc2o1 | 3447 | . | . | -4 | . | . | 9
COC(=O)COc1ccc(-c2nccc(-c3ccccn3)n2)cc1 | 3764 | 22 | 17 | -3 | 5.4 | 6 | 30
C/C(=N/NC(=O)CNC(=O)C1COc2ccccc2O1)c1ccc2c(c1)OCCO2 (configuration not stated) | 3847 | . | . | -2 | . | . | -11
CN(Cc1nc(Cc2ccccc2F)no1)CC1(N2CCOCC2)CCCCC1 | 4435 | 1 | 6 | 2 | 12 | 3 | 3
Cc1ccc(C(C)C)c(OCC(=O)Nc2cccc(S(=O)(=O)NC3=NCCCCC3)c2)c1 | . | 2 | 0 | -9 | 2.4 | -4 | -13
O=C(NC1C2CC3CC(C2)CC1C3)c1ccc2c(c1)OCO2 (configuration not stated) | 4008 | . | . | -4 | 3.4 | 5 | -2
O=C(Nc1nc2ccccc2s1)C1CC(=O)N(c2ccc(F)cc2)C1 (configuration not stated) | 3218 | . | . | -7 | 1.9 | 1 | -11
O=C(CSc1nnc(-c2ccccn2)n1Cc1ccco1)c1ccc(Cl)cc1 | 9522 | 18 | 2 | 12 | 13 | -10 | -24
O=C(COc1ccc(Cl)cc1Cl)N1CCN(C(=O)c2ccco2)CC1 | 3719 | 5 | 0 | -4 | 3.9 | 3 | -21
C=CCSc1nc2[nH]ncc2c(=O)[nH]1 | 2160 | 6 | 14 | 0 | 1.3 | 3 | -14
N#Cc1c(-c2ccccc2)c(-c2ccccc2)nn(CC(=O)NNC(=O)Nc2ccc(Cl)c(Cl)c2)c1=O | 3314 | -9 | 3 | -4 | -17 | 47 | -20
CCOC(=O)c1ccc(NC(=O)CSCc2ccco2)cc1 | 16501* | -6 | 4 | -4 | -1.0 | -1 | -13
O=C(NCc1cn(-c2ccccc2)nc1-c1ccccc1)c1cc([N+](=O)[O-])cc([N+](=O)[O-])c1 | 2766 | . | . | -6 | 1.0 | -1 | -25
O=C(O)CCC(=O)N1CCN(c2ccc(C(=O)c3ccc(F)cc3)cc2)CC1 | 3689 | . | . | 5 | -1.2 | 8 | -5
COc1ccc(CC(=O)Nc2ccc(C(C)=NNC(=O)c3ccc(OC)cc3OC)cc2)cc1 | . | 10 | 4 | . | 1.7 | 9 | .
Cc1nnc(Nc2ccc(C(=O)O)cc2)[nH]c1=O | 5018 | -14 | -8 | -2 | 2.2 | 5 | -22
